CBX7 inh: blocks human CBX7 binding to H3K27me3 peptide; O95931; AlphaScreen His6-CBX7 / biotin-H3K27me3 peptide binding; active compounds read low; normalised signal (fraction of DMSO) (no concentration beside the values); hit rate 1.1% among 66,000; AID 1224903; in the data active means normalised signal below about 0.5;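 further: 100 nL library stock added to about 20 µL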
Target sequence (O95931 whole entry, looked up): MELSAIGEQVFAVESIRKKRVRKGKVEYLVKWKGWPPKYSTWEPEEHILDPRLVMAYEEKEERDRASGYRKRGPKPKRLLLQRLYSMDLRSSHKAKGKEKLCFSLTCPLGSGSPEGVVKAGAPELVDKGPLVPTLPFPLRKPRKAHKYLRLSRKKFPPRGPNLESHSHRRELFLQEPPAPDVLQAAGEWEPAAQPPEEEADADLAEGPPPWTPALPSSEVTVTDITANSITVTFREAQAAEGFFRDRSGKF
CBX7 inh z-score: recorded beside CBX7 inh, whose call it bears; z-score; measured here: z-score of CBX7 signal; some inactives read as strong as hits; reference of the scale not given here;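 same signal on another scale; lower means less binding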
* = called active by the depositor. The list is partial (hit frequency here may not be typical).

SMILES	CBX7 inh	CBX7 inh z-score
O=C(NCCCN1CCN(c2ccccc2F)CC1)c1ccc2nc(N3CCOCC3)sc2c1	1.3	2.6
COc1ccc(N2CCN(Cc3nc4c(c(=O)[nH]c(=O)n4C)n3CCCc3ccccc3)CC2)cc1	0.87	-4.8
Cc1oc(-c2ccc(Cl)cc2)nc1CSCC(=O)NCCCSC1CCCCC1	0.97	-1.2
COc1ccc(CNC(=O)c2cc3c(-c4ccc(OC)c(OC)c4)nn(C)c3s2)cc1	0.99	-0.45
CC(C)CCNC(=O)c1cc(-c2ccccn2)nc2ccc(S(=O)(=O)N3CCC(C)CC3)cc12	0.96	-0.93
Cc1cccc(-c2nc(SCC(=O)Nc3ccc4c(c3)OCO4)c(-c3ccccc3)[nH]2)c1	0.78	-10
CN1CCN(CCOc2cccc(Cl)c2)CC1	0.92	-0.39
COc1ccc(C(=O)CC2(O)C(=O)N(Cc3ccccc3)c3ccccc32)c(OC)c1 (configuration not stated)	0.97	-0.073
N#Cc1ccc(-c2csc(NC(=O)c3sc4ccccc4c3Cl)n2)cc1	1	0.3
CCC1=Nc2cc(C(=O)N3CCN(Cc4ccccc4)CC3)ccc2Sc2ccc(Cl)cc21	0.9	-1.4
CCc1ccc(OCc2nc(-c3ccccn3)no2)c(Br)c1	0.86	-0.19
COc1ccc(CN2C(=O)c3ccccc3C2C(=O)NC2CCCC2)c(OC)c1 (configuration not stated)	1.1	0.94
CCOC(=O)c1c(C)[nH]c(C)c1-c1cccc2ccccc12	0.56	-6
CCc1c(C)nc(Nc2nc(C)c3cc(C)ccc3n2)[nH]c1=O	1	0.73
COc1ccc(-c2noc(CCC(=O)Nc3ccc(C)cn3)n2)cc1	1	0.048
CCOC(=O)N1CCC(Nc2c(NC3CCN(C(=O)OCC)CC3)c(=O)c2=O)CC1	0.9	-1.2
Cc1ccc(S(=O)(=O)C2(C(=O)N3CCN(c4ccccc4F)CC3)CC2)cc1	1	1.3
Cc1ccccc1OC1C(=O)N(C2CCCC2)C1c1ccc2c(c1)OCO2 (configuration not stated)	1	1.1
CC1CCN(C(=O)c2cc(-c3ccncc3)nc3ccccc23)CC1	0.91	-1.2
Cc1ccc(S(=O)(=O)c2cn(CC(=O)Nc3ccc4c(c3)OCO4)c3ccccc3c2=O)cc1C	0.82	-2.5

3 structures already listed, sorted by formula weight, high to low.
SMILES	CBX7 inh	CBX7 inh z-score
COc1ccc(CN2C(=O)c3ccccc3C2C(=O)NC2CCCC2)c(OC)c1 (configuration not stated)	1.1	0.94
CC1CCN(C(=O)c2cc(-c3ccncc3)nc3ccccc23)CC1	0.91	-1.2
CCc1c(C)nc(Nc2nc(C)c3cc(C)ccc3n2)[nH]c1=O	1	0.73

Following part.
SMILES	CBX7 inh	CBX7 inh z-score
COc1cc2c(C(=O)N3CCN(C)CC3)cn(C)c(=O)c2cc1OC	1.1	1.1
COC(CNC(=O)c1ccc2c(c1)N(Cc1ccc(Cl)cc1)CCS2)OC	1	0.068
CCOc1ccc2nc(N3CCC(C(=O)NCCCN4CCOCC4)CC3)sc2c1	1.1	0.49
CCOC(=O)c1c(NC(=O)COc2cccc(C)c2)sc2c1CCCC2	1	0.34
Cc1cc(=O)n2nc(N3CCCC(C(=O)NC(C)C)C3)sc2n1 (configuration not stated)	1.1	1.1
Cc1ccc(/C=C/c2nc3ccccc3n2S(=O)(=O)c2ccc(Br)cc2)cc1	1.1	2.2
CN(CCCNC(=O)c1ccc2c(c1)N(Cc1c(F)cccc1Cl)C(=O)CS2)C1CCCCC1	1.1	0.74
COc1ccc(N2CCN(C(=O)c3nn(-c4cccc(OC)c4)c(=O)c4ccccc34)CC2)cc1	0.84	-4.6
CCOC(=O)c1sc2ncn(CC(=O)Nc3cccc(OC)c3)c(=O)c2c1C	0.98	-0.66
Cc1ccc(N2CC(C(=O)NCc3ccccc3Cl)CC2=O)cc1 (configuration not stated)	0.87	-1.5
Cc1nc2c(C(=O)NC3CCCC3)cnn2c(C)c1Cc1ccc(F)cc1Cl	1	0.021
COc1cccc(OCCCn2c(-c3ccc(Cl)cc3)nc3ccccc3c2=O)c1	1.6	6
CC1CCCC(NC(=O)CN2C(=O)COc3ccc(Cl)cc32)C1C (configuration not stated)	0.92	-0.93
Cc1cc(-c2ccccc2)n(-c2cc(Nc3ccccc3)ncn2)n1	0.81	-2.1
CCOCCCNC(=O)CN1C(=O)C(CC)Oc2ccccc21 (configuration not stated)	1.1	1.3
CC(C)c1ccc(NC(=O)c2n[nH]c(=O)c3ccccc23)cc1	1	0.29
Cn1c(SCc2cccnc2)nnc1-c1c[nH]c2ccccc12	1.1	1.3
CCN(CC)S(=O)(=O)c1ccc(C(=O)Nc2nnc(-c3ccccc3Cl)o2)cc1	1	0.05
O=C(Nc1ccc2oc(-c3cccc(Br)c3)nc2c1)c1ccc(F)cc1	0.93	-1.1
COC(CN(C)C(=O)c1c[nH]c2ccc(S(=O)(=O)Nc3ccccc3F)cc2c1=O)OC	0.92	-1.4
C=CCNC(=O)c1cc2c(n(-c3ccc(Cl)cc3)c1=O)CC(C)(C)CC2=O	1	0.83
CCc1ccc(C2=NN(CCC(=O)NCc3ccccc3)C(=O)CC2)cc1	0.96	-0.81
COc1ccc2nc(Nc3nc(C)cc(-c4ccccc4)n3)nc(C)c2c1	1.1	2.5
COc1ccc2c(c1)-c1nc(NC(=O)c3ccccc3OC)sc1CC2	1.2	3.5
CC1CCCC(NC(=O)c2n[nH]c(=O)c3ccccc23)C1C (configuration not stated)	0.97	-0.52
CCC(=O)N1CCc2cc(S(=O)(=O)NC3CCCC3)ccc21	1.2	1.6
Cc1ccc(C(=O)NCCc2cc3cc(C)c(C)cc3[nH]c2=O)cc1C	1.1	0.69
CCc1ccc(CNC(=O)Cn2nc(-c3ccccc3)ccc2=O)cc1	1	0.014
Cc1ccc(CCN2CC(C(=O)NCCCN3CCCC(C)C3)CC2=O)cc1 (configuration not stated)	1	0.69
COc1ccc(NC(=O)CCc2c(C)nc3c(-c4ccc(F)cc4)c(C)nn3c2C)cc1Cl	1	0.14
CCN1CCN(CCNC(=O)c2ccc3c(c2)NC(=O)c2ccccc2N3)CC1	0.94	-0.93
CCc1ccccc1NC(=O)C1CC(c2ccc(OC)cc2)=NO1 (configuration not stated)	1	-0.18
Cc1ccccc1Cn1c(C2CC(=O)N(Cc3ccccc3)C2)nc2ccccc21 (configuration not stated)	0.85	-1.1
CCN1CCN(Cc2c(C)[nH]c3c(ccc4ccccc43)c2=O)CC1	1.1	2.3
Cc1ccc2cccc(NS(=O)(=O)c3ccccc3)c2n1	1.5	2
COc1ccccc1CN1C(=O)CN(C2CCCCC2)C(=O)C1c1ccc(OC(C)C)c(OC)c1 (configuration not stated)	0.96	-0.88
Fc1ccc(-c2cc(C(F)(F)F)nc(NCc3ccccc3)n2)cc1	1	0.54
O=C(COc1ccc(Cl)cc1)NCc1nnc(SC/C=C/c2ccccc2)o1	1.1	1.4
COc1ccc(NC2c3ccccc3C(=O)N2c2ccccc2C)cc1 (configuration not stated)	0.91	-3
CCCCN(CCCC)CCCNC(=O)CC1Oc2ccccc2NC1=O (configuration not stated)	1.4	2.2
FC(F)(F)c1cc(-c2cccs2)nc(-n2cc(Br)cn2)n1	1	0.14
c1cc2c(cc1Nc1nc3nonc3nc1N1CCOCC1)OCO2	1	0.86
O=c1oc2ccc(Br)cc2cc1-c1nnc(-c2ccccc2Br)o1	0.93	-0.76
O=C(Cc1ccccc1)Nc1c(-c2ccccc2)nc2ccccn12	0.94	-1.7
Cc1ccc(NC2c3ccccc3C(=O)N2c2ccc(Cl)cc2)c(C)c1 (configuration not stated)	0.69	-8.4
COc1ccc(-n2nnc3c(=O)n(Cc4cc(C)ccc4C)cnc32)cc1	1	0.21
COCc1c(C(=O)OC)nnn1-c1nonc1N	1.1	1.2
CCCCNC(=O)CCc1nc(-c2ccccc2F)no1	1.1	2
COc1ccc(-c2csc(NC(=O)c3ccc(Br)cc3F)n2)cc1OC	1.1	2.2
CCc1ccccc1NC(=O)C1=CCN(S(=O)(=O)c2ccc(C)cc2)CC1	1.1	0.92
Cc1cc(C(=O)Nc2ccccc2C(F)(F)F)on1	0.92	-1.1
CCOCCCNC(=O)Cn1nc(Cc2cccnc2)c2ccccc2c1=O	1	0.051
Cc1cc(N2CCC(C)CC2)nc2cc(O)ccc12	0.85	-4.1
CCCCNC(=O)Cc1ccc(NC2=NC3CS(=O)(=O)CC3S2)cc1 (configuration not stated)	0.8	-2.2
Cc1cc(N2CCOCC2)nc2ccc(NC(=O)CCC(=O)Nc3ccc4c(c3)OCCO4)cc12	0.98	-0.37
CN(CCNC(=O)c1cnn(-c2ccccc2)c1-n1cccc1)C1CCCCC1	1	0.53
COCCCNC(=O)CCC(=O)Nc1ccc2nc(N3CCCCC3)cc(C)c2c1	1.2	3
COc1ccc(C)cc1NC(=O)c1cc2c(-c3ccc(OC)c(OC)c3)nn(C)c2s1	0.98	-0.93
CCC(C)[C@@H](C(=O)Nc1ccc(F)cc1)N1Cc2ccccc2C1=O (some centres not stated)	0.94	-1.1
CCOc1ccc(CCNC(=O)CCc2c(C)nc3cc(-c4ccccc4OC)nn3c2C)cc1	0.9	-1.6

Laid out differently: entries from further up
structure | CBX7 inh | CBX7 inh z-score
CCOCCCNC(=O)Cn1nc(Cc2cccnc2)c2ccccc2c1=O | 1 | 0.051
Cc1cc(N2CCC(C)CC2)nc2cc(O)ccc12 | 0.85 | -4.1
CCCCNC(=O)Cc1ccc(NC2=NC3CS(=O)(=O)CC3S2)cc1 (configuration not stated) | 0.8 | -2.2
Cc1cc(N2CCOCC2)nc2ccc(NC(=O)CCC(=O)Nc3ccc4c(c3)OCCO4)cc12 | 0.98 | -0.37

Continued:
SMILES	CBX7 inh	CBX7 inh z-score
O=C(NCc1ccccc1Cl)C1(NS(=O)(=O)c2cccc3cccnc23)CCCCC1	0.99	-0.67
CCc1nnc(NC(=O)c2cc3sc(Cl)cc3n2C)s1	1	1.1
O=C1CN(C(=O)c2cccc(Br)c2)C(c2ccc(F)cc2)c2cc(F)ccc2N1 (configuration not stated)	0.97	-0.88
Cc1ccc(-c2cn(-c3ccccc3)c(S(C)(=O)=O)n2)cc1	0.91	-1.7
CCN1C(=O)CSc2ccc(C(=O)NCc3ccccc3Cl)cc21	1	0.76
CCc1ncc(C(O)c2cccc(OC)c2OC)n1C (configuration not stated)	1	0.73
CCSc1oc(-c2ccc(C)cc2)nc1S(=O)(=O)c1ccc(Cl)cc1	0.94	-0.11
CCCOc1ccc(C(=O)Nc2sc3c(c2C(=O)OCC)CCCCC3)cc1	1.1	1.1
O=C(C1CC1)N1CCc2cc(S(=O)(=O)Nc3ccc(OC(F)(F)F)cc3)ccc21	1	1.1
NCC(=O)N1CCN(c2ccc3ccccc3n2)CC1	1	0.26
Cc1ccccc1Cn1c(CCCNC(=O)c2ccccc2)nc2ccccc21	1.1	1.5
O=c1c2ccccc2nc(N2CCN(C3CCCCC3)CC2)n1Cc1ccccc1	0.82	-0.38
COC(=O)c1cnn2c(C)c(Cc3c(C)cc(C)cc3C)c(C)nc12	0.99	-0.24
CCCNC(=O)CS(=O)(=O)Cc1nc(-c2ccccc2C)oc1C	1	0.27
COc1ccc(C)cc1N1C(=O)Cn2cccc2C1C(=O)NC1CCC(C)CC1 (configuration not stated)	0.94	-1.4
O=c1nc(/C=C/c2ccc3c(c2)OCO3)cc(C(F)(F)F)[nH]1	1	-0.051
CCOc1ccc(-n2nc(C(=O)Nc3ccccc3C(F)(F)F)c3ccccc3c2=O)cc1	0.9	-1.4
Cc1nc2ccc(S(=O)(=O)NC(CC(C)C)C(=O)NCc3ccccc3Cl)cc2s1 (configuration not stated)	1	0.34
CCc1ccccc1NC(=O)C1NC(=O)CC1c1ccccc1 (configuration not stated)	0.96	-0.46
O=C(CN1C(=O)CSc2ccccc21)NCCN1CCc2ccccc2C1	0.88	-2.1

Five of the entries above in order of the CBX7 inh z-score value, high to low.
SMILES,CBX7 inh z-score
CCCOc1ccc(C(=O)Nc2sc3c(c2C(=O)OCC)CCCCC3)cc1,1.1
CCc1ncc(C(O)c2cccc(OC)c2OC)n1C (configuration not stated),0.73
COC(=O)c1cnn2c(C)c(Cc3c(C)cc(C)cc3C)c(C)nc12,-0.24
CCc1ccccc1NC(=O)C1NC(=O)CC1c1ccccc1 (configuration not stated),-0.46
O=C(NCc1ccccc1Cl)C1(NS(=O)(=O)c2cccc3cccnc23)CCCCC1,-0.67

Following part.
SMILES	CBX7 inh	CBX7 inh z-score
Cc1c(C(=O)Nc2ccc(F)cc2F)sc2ncn(CC(=O)N3CCCCC3C)c(=O)c12 (configuration not stated)	1	0.79
Cc1ccc(-n2nc3c(c2NC(=O)c2ccccc2C(F)(F)F)CSC3)cc1	0.96	-0.85
CCC(C)NC(=O)C1CCN(c2nc3cc(Cl)ccc3s2)CC1 (configuration not stated)	0.98	-0.65
CCOC(=O)C1CCN(c2c(NCC3CCCO3)c(=O)c2=O)CC1 (configuration not stated)	1	0.043
COCCCNC(=O)CCCCCn1c(=O)[nH]c2cc(OC)c(OC)cc2c1=O	1	0.92
O=C(Nc1ccccc1F)c1cnn(-c2ccc(F)cc2)c1C1CCNCC1	1	-0.18
Cc1nc2cc(-c3ccccc3)nn2c(C)c1CCC(=O)NCCCN1CCOCC1	1	0.51
CCCCCn1c(-c2cccs2)nc2ccccc21	1.1	3.5
Cc1ccc(S(=O)(=O)C2(C(=O)Nc3ccc(F)c(F)c3)CC2)cc1	1.2	2.3
O=C(CCc1nc(-c2ccccc2F)no1)NCCCN1CCOCC1	0.92	-1.2
Cc1c(C(=O)Nc2ccc3c(c2)OCCO3)sc2ncn(CC(=O)N3CCC(C)CC3)c(=O)c12	0.89	-0.71
CC(C)C1C(c2ccccc2)NC(c2ccccc2)CC1(C)O (configuration not stated)	0.91	-2.5
Cc1ccn2c(NC(=O)C3CC3)c(-c3ccc(F)cc3)nc2c1	1.1	1
